Screening results: PubChem BioAssay, several laboratories
Sa ugtP lethal – growth inhibition of ugtP-null S. aureus, primary screen, RN4220 ugtP deletion, OD600. 16 h; some inactives read as strong as hits. 330,000 tested, 0.54% active. AID 1259309, 2017. growth inhibition, % (concentration not given with the values);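 active means z-score under -3 and OD600 up to 0.15 on both plates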;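 further: plate controls were untreated wells for no effect and antibiotic for full effect; wells of about 80 µL received 100 nL stock; the first replicate is given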
Sa RN4220 lethal – growth inhibition of S. aureus RN4220, primary screen, OD600 | 16 h | inhibition, % (concentration not given with the values) | 330,000 tested, 0.33% active;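 active means z-score of -3 or lower and OD600 up to 0.18 on both plates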;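 further: plate controls were untreated cells for no effect and reference antibiotic for full effect; stock transfer was 100 nL into about 80 µL; one replicate is shown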
BJeLR lethal – MLPCN primary cell-based screen for lethality selective to Ras in HRASV12 cells | BJeLR (HRASV12) viability, CellTiter-Glo ATP luminescence, 48 h; reference of the scale not given here | AID 1554, 2009 | inhibition, % (no concentration beside the values) | 300,000 tested, 0.17% active;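 active means replicate mean above 50%; inconclusive means above 50% but judged a plate artefact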;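 further: 50 nL library stock added to about 25 µL; numbers are from one replicate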
Bead autofluor – flagged as autofluorescent in microsphere protease counterscreen | AID 624483 | compound autofluorescence counterscreen, microsphere flow cytometry; active compounds read high | 360,000 tested, 3.1% active | fluorescence intensity (test concentration not listed);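 active means at least 3 SD above the mean of all compounds, about 16000 in these data; inconclusive means too few beads counted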;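 further: 100 nL of 1 mM stock went into each well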
PrP 5UTR inh – inhibition of PrP 5' UTR reporter expression. cell-based PrP 5' UTR mRNA reporter, plate reader. inhibition, % (concentration not given with the values). 340,000 tested, 0.35% active. AID 488862, 2010;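 active means every replicate at 50% or more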;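 further: 0 = median of the neutral control wells; tested in H4 reporter cells; numbers are from one replicate; inactives centre near -14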
Mtb hypoxia inh – PubChem AID 1159583. M. tuberculosis hypoxia-regulated fluorescent reporter, fluorescence. fluorescence inhibition, % (test concentration not listed). 300,000 tested, 0.1% active;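 active means 35 to 45% if threefold the growth effect, above 45% if 1.5-fold the growth effect; inactive means the rest, general growth blockers included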;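 further: wells of about 50 µL received 100 nL stock; 0% = vehicle wells and 100% = reference inhibitor wells; whole bacteria with a GFP reporter of the hypoxia response; strong numbers were not always called active; many hits fall short of the cut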
Mtb hypoxia inh growth – recorded beside Mtb hypoxia inh, whose call it bears; growth inhibition, %; measured here: M. tuberculosis growth (absorbance);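 0% = vehicle and 100% = reference antibiotic; read after six days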
Numbers without * were called inactive. Random draw from the library. Share with any hit: about 3.9%.

How did COc1cc(C)c(C(=O)CSc2nnc(CNC(=O)c3ccco3)n2C)cc1C do in these assays?
Sa ugtP lethal: 12.4; Sa RN4220 lethal: -6.0; BJeLR lethal: 9.2; Bead autofluor: 3795; PrP 5UTR inh: -10.9; Mtb hypoxia inh: 5.0; Mtb hypoxia inh growth: 1.1

How did CCn1c(SCC(=O)N2CCOCC2)nnc1C(C)NC(=O)c1ccccc1 (stereo not drawn) do in these assays?
Sa ugtP lethal: 4.2; Sa RN4220 lethal: -1.7; BJeLR lethal: -2.3; Bead autofluor: 4834; PrP 5UTR inh: -10.4; Mtb hypoxia inh: 4.6; Mtb hypoxia inh growth: 3.4

Results for COc1ccc(C(CNC(=O)CN2C(=O)NC3(CCCC3)C2=O)N(C)C)cc1 (stereo not drawn) ?
Sa ugtP lethal: -0.2; Sa RN4220 lethal: 1.8; BJeLR lethal: 15.9; PrP 5UTR inh: -19.3; Mtb hypoxia inh: 4.8; Mtb hypoxia inh growth: -4.9

How did Cc1ccc(S(=O)(=O)NCC(=O)N(CC(=O)NC2CCCCC2)CC2CCCO2)cc1 (stereo not drawn) do in these assays?
Sa ugtP lethal: 5.3; Sa RN4220 lethal: 1.4; BJeLR lethal: -21.8; Bead autofluor: 10593; PrP 5UTR inh: -15.9; Mtb hypoxia inh: 5.5; Mtb hypoxia inh growth: 2.3

What do the screens show for `CCOC(=O)CN1CCc2c(C)nc3c(-c4ccc(OC)c(OC)c4)cnn3c21`?
Sa ugtP lethal: 0.0; Sa RN4220 lethal: 5.4; BJeLR lethal: -1.0; Bead autofluor: 5424; PrP 5UTR inh: -22.1; Mtb hypoxia inh: 2.7; Mtb hypoxia inh growth: 10.0

What do the screens show for `O=C(N=Nc1c(O)[nH]c2ccccc12)c1cccs1`?
Sa ugtP lethal: 3.6; Sa RN4220 lethal: 18.5; BJeLR lethal: 5.8; Bead autofluor: 2338; PrP 5UTR inh: -106.6; Mtb hypoxia inh: 5.1; Mtb hypoxia inh growth: -7.0

How did COc1cc(NC(=O)COC(=O)CNC(=O)C23CC4CC(CC(C4)C2)C3)cc(OC)c1 do in these assays?
Sa ugtP lethal: -7.1; Sa RN4220 lethal: 1.7; Bead autofluor: 3288; PrP 5UTR inh: -14.6; Mtb hypoxia inh: -4.6; Mtb hypoxia inh growth: -6.0

Results for COc1ccc(N(CC(=O)Nc2cccc(C)c2C)S(=O)(=O)c2c(C)[nH]c(=O)[nH]c2=O)cc1 ?
Sa ugtP lethal: 1.7; Sa RN4220 lethal: 5.1; BJeLR lethal: -5.8; Bead autofluor: 4166; PrP 5UTR inh: -6.5; Mtb hypoxia inh: 12.4; Mtb hypoxia inh growth: 5.0

What do the screens show for `CN1CCN(C(=O)c2ccc(C(F)(F)F)cc2)CC1`?
Sa ugtP lethal: -6.1; Sa RN4220 lethal: -1.3; BJeLR lethal: -0.4; Bead autofluor: 4186; PrP 5UTR inh: -22.1; Mtb hypoxia inh: -0.7; Mtb hypoxia inh growth: 8.5

What do the screens show for `CC(OC(=O)C1CC1C)C(=O)Nc1ccc(Cl)cn1` (stereo not drawn)?
Sa ugtP lethal: 0.2; Sa RN4220 lethal: 2.5; Bead autofluor: 4602; PrP 5UTR inh: -7.1; Mtb hypoxia inh: -8.5; Mtb hypoxia inh growth: -6.4

Not a retest: an excerpt of the list.
How did COc1cc(C)c(C(=O)CSc2nnc(CNC(=O)c3ccco3)n2C)cc1C do in these assays?
Sa ugtP lethal: 12.4; Sa RN4220 lethal: -6.0; BJeLR lethal: 9.2; Bead autofluor: 3795; PrP 5UTR inh: -10.9; Mtb hypoxia inh: 5.0; Mtb hypoxia inh growth: 1.1

How did CCn1c(SCC(=O)N2CCOCC2)nnc1C(C)NC(=O)c1ccccc1 (stereo not drawn) do in these assays?
Sa ugtP lethal: 4.2; Sa RN4220 lethal: -1.7; BJeLR lethal: -2.3; Bead autofluor: 4834; PrP 5UTR inh: -10.4; Mtb hypoxia inh: 4.6; Mtb hypoxia inh growth: 3.4

(list continues)
Results for O=C(COC(=O)C1CCC1)Nc1cccc(Cl)c1 ?
Sa ugtP lethal: 5.5; Sa RN4220 lethal: 4.1; BJeLR lethal: 5.8; Bead autofluor: 5385; PrP 5UTR inh: -33.8; Mtb hypoxia inh: 8.1; Mtb hypoxia inh growth: 1.0

Results for Cc1cccnc1NC(N)=S ?
Sa ugtP lethal: 3.7; Sa RN4220 lethal: -0.5; BJeLR lethal: -9.7; Bead autofluor: 4304; PrP 5UTR inh: -21.4; Mtb hypoxia inh: 12.8; Mtb hypoxia inh growth: -2.2

Results for N#CC1(c2nc3ccccc3[nH]2)CC1c1ccc2c(c1)OCO2 (stereo not drawn) ?
Sa ugtP lethal: -11.3; Sa RN4220 lethal: -0.8; BJeLR lethal: -1.5; Bead autofluor: 8937; PrP 5UTR inh: 6.4; Mtb hypoxia inh: 1.3; Mtb hypoxia inh growth: -0.3

How did COc1ccc(-c2nc(CC(=O)Nc3cccc(S(=O)(=O)NC4=NCCC4)c3)cs2)cc1 do in these assays?
Sa ugtP lethal: 4.1; Sa RN4220 lethal: 1.4; Bead autofluor: 5600; PrP 5UTR inh: -21.0; Mtb hypoxia inh: -6.6; Mtb hypoxia inh growth: 4.2

What do the screens show for `COC(=O)C1(C(C[N+](=O)[O-])c2ccc(C)cc2)C(=O)NCC1c1ccco1` (stereo not drawn)?
Sa ugtP lethal: 1.3; Sa RN4220 lethal: 3.7; BJeLR lethal: -1.7; Bead autofluor: 5321; Mtb hypoxia inh: 6.1; Mtb hypoxia inh growth: 4.5

Results for CC(C)(C)c1cc[n+](-c2[nH]c(=O)sc2C=N/N=C(\[O-])c2ccccc2)cc1 ?
Sa ugtP lethal: 3.7; Sa RN4220 lethal: 1.8; Mtb hypoxia inh: 4.8; Mtb hypoxia inh growth: 5.2

How did COc1ccc(C(=O)N(CC(=O)NC(C)(C)C)c2ccc3c(c2)OCCO3)cc1OC do in these assays?
Sa ugtP lethal: -0.4; Sa RN4220 lethal: 1.0; BJeLR lethal: 5.2; Bead autofluor: 9996; PrP 5UTR inh: -45.8; Mtb hypoxia inh: 6.6; Mtb hypoxia inh growth: 0.5

What do the screens show for `Cc1sc2ncnc(N3CCC(C(=O)Nc4sc5c(c4C(N)=O)CCC(C)C5)CC3)c2c1C` (stereo not drawn)?
Sa ugtP lethal: -6.8; Sa RN4220 lethal: 0.5; Bead autofluor: 4092; PrP 5UTR inh: 1.1; Mtb hypoxia inh: -0.3; Mtb hypoxia inh growth: 17.6

What do the screens show for `COc1ccc2sc(N(CCCN(C)C)C(=O)c3ccc(S(=O)(=O)N4CCc5ccccc5C4)cc3)nc2c1`?
BJeLR lethal: 31.7; Bead autofluor: inconclusive; PrP 5UTR inh: -9.3

Results for CCOC(=O)N1CCN(C(=O)c2ccc3c(c2)N=C(C)c2cc(Cl)ccc2S3)CC1 ?
Sa ugtP lethal: -7.7; Sa RN4220 lethal: 1.1; BJeLR lethal: 8.1; Bead autofluor: 5619; PrP 5UTR inh: -21.3; Mtb hypoxia inh: 5.7; Mtb hypoxia inh growth: 2.0

Results for COc1ccc(C2=NN3C(C2)c2ccccc2OC32C(=O)N(C)c3ccccc32)cc1 (stereo not drawn) ?
Sa ugtP lethal: -10.5; Sa RN4220 lethal: 0.8; BJeLR lethal: -9.5; Bead autofluor: 2575; PrP 5UTR inh: -89.8

How did Cc1ccc(C)c(NC(=O)N2CCc3ccccc3C2)c1 do in these assays?
Sa ugtP lethal: -0.8; Sa RN4220 lethal: -1.5; BJeLR lethal: -7.0; Bead autofluor: 5316; PrP 5UTR inh: -24.0; Mtb hypoxia inh: -0.3; Mtb hypoxia inh growth: 5.4

Results for O=C(Nc1cccc(Cl)c1Cl)C1CCCC1 ?
Sa ugtP lethal: 9.9; Sa RN4220 lethal: 2.4; BJeLR lethal: -10.0; Bead autofluor: 3032; PrP 5UTR inh: -16.8; Mtb hypoxia inh: 11.4; Mtb hypoxia inh growth: 1.0

Results for COc1ccc(C2(CNC(=O)CCC(=O)O)CCCC2)cc1 ?
Sa ugtP lethal: 1.6; Sa RN4220 lethal: 0.8; BJeLR lethal: -1.9; Bead autofluor: 4493; PrP 5UTR inh: 1.6

Results for COc1ccc(-c2ccoc2)cc1C1C2C=CCC(C)C2C(=O)N1Cc1ccccc1 (stereo not drawn) ?
Sa ugtP lethal: 8.9; Sa RN4220 lethal: -18.7; Mtb hypoxia inh: 2.7; Mtb hypoxia inh growth: -0.6

Results for Cc1ccc(OCC(=O)NCCNC(=O)c2ccncc2)cc1C ?
Sa ugtP lethal: 1.7; Sa RN4220 lethal: 2.9; BJeLR lethal: 0.0; Bead autofluor: 5542; PrP 5UTR inh: -19.9; Mtb hypoxia inh: 1.9; Mtb hypoxia inh growth: 2.6

What do the screens show for `CC(=O)c1sc(N/N=C2\CC3CC2C(C)C3(C)C)nc1C` (stereo not drawn)?
BJeLR lethal: -9.9; Bead autofluor: 4828; PrP 5UTR inh: -23.7

What do the screens show for `CCOc1nc2cnccc2n(CC(=O)Nc2ccccc2F)c1=O`?
Sa ugtP lethal: 1.3; Sa RN4220 lethal: 1.7; BJeLR lethal: -6.2; Bead autofluor: 6824; PrP 5UTR inh: -8.7; Mtb hypoxia inh: -9.5; Mtb hypoxia inh growth: -7.4

How did NC(CC(=O)Nc1ccc(F)cc1)=NO do in these assays?
Sa ugtP lethal: 11.4; Sa RN4220 lethal: 2.2; Mtb hypoxia inh: 11.3; Mtb hypoxia inh growth: 10.0

How did Cn1c(-c2ccccc2)cnc1SCC(=O)N1CCCCC1 do in these assays?
Sa ugtP lethal: -5.0; Sa RN4220 lethal: 5.5; BJeLR lethal: 2.7; Bead autofluor: 2111; PrP 5UTR inh: 2.3

How did Cc1[nH]c2ccccc2c1/C=C(\C#N)S(=O)(=O)c1ccccc1 do in these assays?
Sa ugtP lethal: -3.5; Sa RN4220 lethal: 1.5; BJeLR lethal: -4.9; Bead autofluor: 20697*; PrP 5UTR inh: -16.3; Mtb hypoxia inh: 11.0; Mtb hypoxia inh growth: 12.1

What do the screens show for `CCOC(=O)/C(C#N)=C1/C=C(C)c2ccccc2N1`?
BJeLR lethal: 5.6; Bead autofluor: 3329; PrP 5UTR inh: -14.0

Results for Cc1ccc(/C=N/Nc2ccc(F)cc2F)s1 ?
BJeLR lethal: -1.4; Bead autofluor: 3752; PrP 5UTR inh: -12.0

What do the screens show for `CC(=O)Nc1cc(-c2ccc(Cl)cc2)nn1-c1ccccc1`?
Sa ugtP lethal: -5.0; Sa RN4220 lethal: -6.1; BJeLR lethal: 0.1; Bead autofluor: 2855; PrP 5UTR inh: -11.8; Mtb hypoxia inh: 5.7; Mtb hypoxia inh growth: -2.0

What do the screens show for `O=C(COc1ccc(S(=O)(=O)N2CCCCC2)cc1)N1CCOCC1`?
Sa ugtP lethal: 1.3; Sa RN4220 lethal: 1.2; BJeLR lethal: -27.1; Bead autofluor: 5758; PrP 5UTR inh: -10.4; Mtb hypoxia inh: 5.7; Mtb hypoxia inh growth: 1.0

What do the screens show for `Cn1cc(C=C(C#N)C#N)c2ccccc21`?
Sa ugtP lethal: 9.1; Sa RN4220 lethal: 2.6; BJeLR lethal: -14.1; Bead autofluor: 4237; PrP 5UTR inh: -27.2; Mtb hypoxia inh: -0.6; Mtb hypoxia inh growth: 6.8

How did COc1ccc(CCn2nnnc2C(C(C)C)N2CCC(C(N)=O)CC2)cc1OC (stereo not drawn) do in these assays?
Sa ugtP lethal: 4.5; Sa RN4220 lethal: 0.8; BJeLR lethal: 1.4; Bead autofluor: 4132; PrP 5UTR inh: -16.7

How did Nn1c(SCc2cccc(C(F)(F)F)c2)nnc1-c1ccco1 do in these assays?
Sa ugtP lethal: 5.3; Sa RN4220 lethal: 5.0; BJeLR lethal: 2.2; Bead autofluor: 6915; PrP 5UTR inh: -19.2; Mtb hypoxia inh: 11.2; Mtb hypoxia inh growth: 2.9

What do the screens show for `O=C1CC(c2c(F)cccc2Cl)C(n2cncn2)C(O)=C1C1NCCc2ccccc21` (stereo not drawn)?
Sa ugtP lethal: 9.0; Sa RN4220 lethal: 2.4; BJeLR lethal: -7.0; Bead autofluor: 4202; PrP 5UTR inh: -6.8; Mtb hypoxia inh: 6.5; Mtb hypoxia inh growth: 15.5

Results for CCCCN(C(=O)CSCC(=O)Nc1ccc(OC)cc1)c1c(N)n(CCC)c(=O)[nH]c1=O ?
Sa ugtP lethal: 12.9; Sa RN4220 lethal: 3.3; BJeLR lethal: 6.6; Bead autofluor: 7447; PrP 5UTR inh: -22.8; Mtb hypoxia inh: 11.4; Mtb hypoxia inh growth: -3.2
